Insulin prom inh: TRM-6 insulin promoter activity inhibition | TRM-6 cells (human fetal islet line), insulin promoter-eGFP reporter, imaging; reporter expression induced with tamoxifen | inhibition, % at 2 µM | actives 0.9% (n = 130,000);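 active means inhibition above the mean plus 3 SD, with well images judged a real hit on visual review, cut at about 60% in these data, passing the limit was not always enough; inconclusive means inhibition over the cutoff but images rejected on review; inactive means inhibition not above the cutoff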
PKD1 kinase inh: blocks activity of human protein kinase D1 | PKD1 kinase fluorescence polarization assay | inhibition, %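 (about 10 µM by stock and volumes)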 | actives 0.056% (n = 200,000);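 active means inhibition of 50% or more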;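 further: controls were vehicle for no effect and a reference inhibitor for full effect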
Target sequence (Q15139 whole entry, looked up): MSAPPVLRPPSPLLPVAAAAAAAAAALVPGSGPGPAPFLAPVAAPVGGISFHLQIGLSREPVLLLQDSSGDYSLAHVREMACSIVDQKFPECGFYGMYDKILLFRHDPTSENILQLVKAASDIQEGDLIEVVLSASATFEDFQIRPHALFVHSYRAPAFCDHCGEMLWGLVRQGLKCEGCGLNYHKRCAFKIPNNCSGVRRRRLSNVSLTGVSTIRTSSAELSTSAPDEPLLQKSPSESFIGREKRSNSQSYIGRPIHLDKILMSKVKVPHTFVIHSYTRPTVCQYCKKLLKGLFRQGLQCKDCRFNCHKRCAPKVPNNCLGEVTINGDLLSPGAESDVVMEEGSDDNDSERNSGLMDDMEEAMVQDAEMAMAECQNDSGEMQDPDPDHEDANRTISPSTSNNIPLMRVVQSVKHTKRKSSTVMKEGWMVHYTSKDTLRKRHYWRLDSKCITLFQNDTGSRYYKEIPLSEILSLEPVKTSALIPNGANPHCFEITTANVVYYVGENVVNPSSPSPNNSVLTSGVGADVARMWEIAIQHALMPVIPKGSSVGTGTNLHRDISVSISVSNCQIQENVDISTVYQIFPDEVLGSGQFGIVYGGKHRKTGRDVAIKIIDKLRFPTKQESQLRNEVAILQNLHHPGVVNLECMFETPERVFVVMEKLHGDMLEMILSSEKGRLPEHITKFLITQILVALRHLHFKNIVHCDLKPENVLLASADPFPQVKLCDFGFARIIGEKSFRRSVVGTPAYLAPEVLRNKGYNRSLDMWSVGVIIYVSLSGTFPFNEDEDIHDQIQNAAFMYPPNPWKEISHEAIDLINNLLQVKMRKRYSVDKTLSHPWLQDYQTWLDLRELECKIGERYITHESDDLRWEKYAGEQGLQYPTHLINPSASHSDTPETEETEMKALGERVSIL
GALR2 ag: activates the human galanin receptor 2; actives 0.48% (n = 140,000); AID 803; GALR2-expressing cells, agonist activation read-out; activation, %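 (tested at 5 µM)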;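 active means above mean plus 3 SD of all compounds, about 5% in these data, not always enough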;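 further: 0% = vehicle buffer wells and 100% = reference agonist at full effect; tested in CHO reporter cells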
HSV augment: increases HSV replication in cells. HSV replication augmentation in cells, fold increase. maximum fold increase. actives 0.005% (n = 220,000);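 active means peak rise of 1.5-fold or more in the series; inconclusive means self-fluorescent or not available for retest; tested in PC3 cells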;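 further: first round at 10 µM; read as green reporter fluorescence; hits show the peak of a series up to 25 µM; 1 = signal of infected wells without compound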
RGS16-Gao HTS: RGS16-Galphao interaction regulator (human). O15492+P09471. bead-based flow cytometry RGS16-Galphao binding, fluorescence; actives lie on both sides. binding response (% of control), % at 10 µM. actives 0.38% (n = 220,000);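 active means below 25% or above 175%, edge rows of some plates excepted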;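 further: Galphao activated by GDP with aluminum fluoride before binding; 100% = wells without compound and 0% = beads without RGS; some results beyond the cut were filed as inactive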
Insulin prom inh cell count: recorded beside Insulin prom inh, whose call it bears; normalized cell count, %; measured here: cell count, toxicity; reference of the scale not given here;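 cells exposed to compound for 48 h; stained nuclei by imaging scaled within each plate; lower means fewer cells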
HSV augment primary fold: recorded beside HSV augment, whose call it bears; fold increase; compound at 10 µM; measured here: primary screen fold increase 10 uM; tested in PC3 cells;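 GFP signal in the first replicate; 1 = infected wells without compound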
* hit, by the source's call; i = inactive; ? = inconclusive; . = no result given.

The line under a structure holds: Insulin prom inh | Insulin prom inh cell count | PKD1 kinase inh | GALR2 ag | HSV augment | HSV augment primary fold | RGS16-Gao HTS
1. CCCOc1cccc(C(=O)N(Cc2ccc(OC)c(OC)c2)C2CCS(=O)(=O)C2)c1 (stereo not drawn)
    -146.7 | 41.2 | 5.0 | -1.2 | i | 0.8 | 101.5
2. COc1c(F)c(F)c(C(=O)Nc2ccccc2N2CCN(C(=O)C(C)C)CC2)c(F)c1F
    9.5 | 133.5 | -5.2 | -3.2 | i | 0.99 | 106.9
3. O=C(C1=C(O)C(=O)N(Cc2ccccc2)C1c1cccnc1)c1ccco1 (stereo not drawn)
    -27.5 | 88.3 | -11.3 | 0.4 | i | 1 | .
4. COc1ccc(/C=N/S(=O)(=O)c2ccc(C)cc2)cc1
    -55.6 | 115.0 | -7.3 | . | i | 0.88 | 102.9
5. c1ccc2[nH]c(CSc3nc4ccccc4s3)nc2c1
    -10.8 | 67.0 | -1.0 | -1.2 | i | 1.01 | 97.0
6. O=c1c2c(nc3nc[nH]n13)CCC2
    11.1 | 133.6 | 1.2 | -2.0 | i | 0.9 | 102.8
7. O=c1[nH]cnc2cc(-c3ccccc3)sc12
    -35.7 | 121.5 | 1.2 | -1.1 | i | 0.75 | 106.6
8. Cc1ccc(S(=O)(=O)Nc2nc(N)n(-c3ccccc3)n2)cc1
    13.3 | 146.3 | -8.3 | . | i | 0.89 | 99.3
9. O=C(CSc1nnnn1-c1ccccc1)NC1CCCc2ccccc21 (stereo not drawn)
    . | . | 6.8 | -0.7 | i | 0.89 | 101.2
10. O=S(=O)(Nc1ncccn1)c1ccc(NC(=S)Nc2cccc(Cl)c2)cc1
    . | . | . | . | i | 0.89 | 109.0
11. CCSC1=NCCN1S(=O)(=O)c1ccc2ccccc2c1
    30.8 | 116.5 | 6.4 | . | i | 0.94 | 99.0
12. COc1cccc(C(=O)Nc2ncc3c(n2)CC(C)CC3=O)c1 (stereo not drawn)
    -57.9 | 117.4 | -12.5 | -4.1 | i | 0.89 | 99.0
13. CCC1(CC)C(=O)NC(=O)NC1=NCCc1c[nH]c2ccccc12
    -177.4 | 129.1 | -14.3 | -3.4 | i | 1.03 | 106.0
14. Cc1ccc(N=C2S/C(=C\c3cn(CC(=O)O)c4ccccc34)C(=O)N2C)cc1
    . | . | -0.7 | -0.8 | i | 1.06 | 104.5
15. COc1ccccc1-n1cnnc1SCC(=O)N1CCN(C(=O)c2ccco2)CC1
    27.3 | 121.1 | -6.3 | . | i | 0.97 | 110.4
16. Cn1cccc1-c1cc(C(=O)N/N=C/C=C/c2ccccc2)[nH]n1
    27.8 | 153.3 | -6.1 | . | i | 0.8 | 100.2
17. O=C(CN(Cc1ccccc1)C(=O)CSc1nnc(COc2ccccc2)o1)NC1CCCC1
    73.3 | 94.1 | -7.2 | -4.2 | ? | . | 47.5
18. CCN(CCNC(=O)C1CCCN(S(=O)(=O)CC)C1)c1ccccc1 (stereo not drawn)
    -67.7 | 146.2 | -16.1 | -2.7 | i | 0.89 | 94.4
19. O=C1c2cccnc2C(O)N1Cc1ccc(F)cc1 (stereo not drawn)
    -6.5 | 124.8 | -8.8 | -2.3 | i | 1.07 | 106.5
20. CCCCN(C(=O)CCC(=O)O)C1CC(=O)N(c2ccc(OCCC)cc2)C1=O (stereo not drawn)
    -5.6 | 119.5 | 5.6 | -1.8 | i | 0.957 | 99.8
21. CCOC(=O)c1c(NC(C)=O)sc2c(OCC(O)CN(CC)CC)c(Br)ccc12 (stereo not drawn)
    . | . | -0.3 | . | i | 0.54 | 101.9
22. COc1cccc2cc(-c3csc(CCn4nc(C)cc4C)n3)c(=O)oc12
    -5.6 | 117.3 | -6.1 | -1.0 | i | 0.9 | 98.0
23. CNc1nc(Nc2ccc(Br)cc2)nc(N)c1[N+](=O)[O-]
    12.0 | 119.9 | -11.6 | 5.3* | i | 0.89 | 109.5
24. Cc1cc(NC(=O)CSc2nnc(-c3ccoc3C)n2N)no1
    . | . | 10.1 | -1.1 | i | 0.96 | 129.4
25. Fc1ccccc1CSc1nnc(-c2ccccc2)o1
    -35.5 | 163.2 | -5.6 | -1.0 | i | 0.89 | 110.1
26. O=[N+]([O-])c1ccccc1N/N=C/c1cccc(O)c1O
    . | . | . | . | i | 0.7 | 93.0
27. COC(=O)c1ccc(-n2c(C)cc(C(=O)CSc3cccc[n+]3[O-])c2C)cc1
    28.6 | 161.4 | -4.7 | . | i | 1 | 100.4
28. C(=N\Nc1ccc2ccccc2n1)/c1ccc2c(c1)OCO2
    . | . | -8.7 | . | i | 0.99 | 108.1
29. Cc1cc(C)cc(NC(=O)COc2ccc3c(C)c(Cc4ccccc4)c(=O)oc3c2)c1
    44.8 | 77.1 | -5.8 | 0.3 | i | 0.9 | 138.9
30. CCOCC(=O)Nc1cc(C(=O)NCCc2ccccc2)ccc1Cl
    . | . | -10.8 | . | i | 0.91 | 103.4
31. O=C(Nc1cc(-c2nc3ccccc3s2)ccc1Cl)c1ccc2c(c1)OCO2
    . | . | 2.4 | -1.3 | i | 0.85 | 102.2
32. CC(C)NC(=O)c1onc(CSc2ccc(Cl)cc2)c1C(=O)O
    16.2 | 121.3 | -2.5 | -2.1 | i | 1 | 102.9
33. Cc1ccccc1-n1sc2cc(F)ccc2c1=O
    -123.5 | 23.5 | -0.3 | . | i | 0.94 | 4.8*
34. Fc1ccccc1N1CCN(c2nc(-c3cccs3)nc3ccccc23)CC1
    33.3 | 83.3 | 6.7 | . | i | 1.04 | 106.4
35. CC1(OC(=O)C2CCCC2)C(=O)C=C2C=C(c3ccsc3)N(CC3CC3)C=C2C1=O (stereo not drawn)
    . | . | . | . | i | 0.78 | 91.2
36. CCOC(=O)C(CC)Sc1nc(N)c(NC(=O)c2ccc(OC)c(OC)c2)c(=O)[nH]1 (stereo not drawn)
    . | . | -8.5 | -3.4 | i | 1.04 | 105.6
37. Cc1ccc(N2C(=O)c3ccc(C(=O)N4CCN(c5cccc(C)c5C)CC4)cc3C2=O)cc1
    -180.0 | 78.9 | 3.2 | -0.5 | i | 0.98 | 97.0
38. COCCNC(=O)C1(C)Oc2ccccc2NC1=O (stereo not drawn)
    6.2 | 223.8 | -5.0 | -1.9 | i | 0.97 | 101.2
39. CC(C)CCNC(=S)Nc1ccc(F)cc1
    9.1 | 84.7 | -8.3 | -1.8 | i | 1.04 | .
40. COc1ccc2nc(SCC(=O)NCCc3ccccc3)[nH]c2c1
    . | . | . | . | i | 0.9 | 99.7
41. CC(C)CNC(=O)C1CCCN1S(=O)(=O)c1ccc(Cl)cc1 (stereo not drawn)
    -6.2 | 126.9 | -4.1 | -2.3 | i | 0.78 | 101.4
42. O=S(=O)(Cc1ccc(Cl)cc1)CC(O)COCc1ccccc1 (stereo not drawn)
    -306.7 | 38.9 | -11.4 | -1.3 | i | 0.78 | 108.9
43. CCCCCCCCCCCCC(NC(C)=O)(C(=O)OCC)C(=O)OCC
    . | . | . | . | i | 0.92 | 112.2
44. CC(C)CC(=O)Nc1ncc([N+](=O)[O-])s1
    . | . | . | . | i | 1.13 | 97.7
45. NC(=O)C1CCCN1 (stereo not drawn)
    . | . | -7.5 | . | i | 1.01 | 99.8

Part of the list above in order of formula weight, lowest first.
The line under a structure holds: Insulin prom inh | Insulin prom inh cell count | PKD1 kinase inh | GALR2 ag | HSV augment | HSV augment primary fold | RGS16-Gao HTS
45. NC(=O)C1CCCN1 (stereo not drawn)
    . | . | -7.5 | . | i | 1.01 | 99.8
44. CC(C)CC(=O)Nc1ncc([N+](=O)[O-])s1
    . | . | . | . | i | 1.13 | 97.7
39. CC(C)CCNC(=S)Nc1ccc(F)cc1
    9.1 | 84.7 | -8.3 | -1.8 | i | 1.04 | .
33. Cc1ccccc1-n1sc2cc(F)ccc2c1=O
    -123.5 | 23.5 | -0.3 | . | i | 0.94 | 4.8*
38. COCCNC(=O)C1(C)Oc2ccccc2NC1=O (stereo not drawn)
    6.2 | 223.8 | -5.0 | -1.9 | i | 0.97 | 101.2
40. COc1ccc2nc(SCC(=O)NCCc3ccccc3)[nH]c2c1
    . | . | . | . | i | 0.9 | 99.7
41. CC(C)CNC(=O)C1CCCN1S(=O)(=O)c1ccc(Cl)cc1 (stereo not drawn)
    -6.2 | 126.9 | -4.1 | -2.3 | i | 0.78 | 101.4
42. O=S(=O)(Cc1ccc(Cl)cc1)CC(O)COCc1ccccc1 (stereo not drawn)
    -306.7 | 38.9 | -11.4 | -1.3 | i | 0.78 | 108.9
43. CCCCCCCCCCCCC(NC(C)=O)(C(=O)OCC)C(=O)OCC
    . | . | . | . | i | 0.92 | 112.2
34. Fc1ccccc1N1CCN(c2nc(-c3cccs3)nc3ccccc23)CC1
    33.3 | 83.3 | 6.7 | . | i | 1.04 | 106.4
35. CC1(OC(=O)C2CCCC2)C(=O)C=C2C=C(c3ccsc3)N(CC3CC3)C=C2C1=O (stereo not drawn)
    . | . | . | . | i | 0.78 | 91.2
37. Cc1ccc(N2C(=O)c3ccc(C(=O)N4CCN(c5cccc(C)c5C)CC4)cc3C2=O)cc1
    -180.0 | 78.9 | 3.2 | -0.5 | i | 0.98 | 97.0

Next section:
The line under a structure holds: Insulin prom inh | Insulin prom inh cell count | PKD1 kinase inh | GALR2 ag | HSV augment | HSV augment primary fold | RGS16-Gao HTS
46. O=C1NC(c2cccs2)Nc2sc3c(c21)CCCC3 (stereo not drawn)
    16.2 | 90.2 | -6.7 | -1.6 | i | 0.74 | 82.5
47. CCOC(=O)c1c(NC(=O)c2cc(C(C)C)on2)sc(C(C)=O)c1C
    4.3 | 55.4 | -9.8 | -2.8 | i | 0.91 | 97.8
48. CCO[C@@H]1OC(C(=O)O)=C[C@H](C2CC2)[C@H]1CCCO
    . | . | -0.6 | . | i | 0.81 | 99.8
49. Cc1nc2ncnn2c(N2CCC(C(=O)NCC3CCCO3)CC2)c1Cc1ccccc1 (stereo not drawn)
    -40.7 | 60.5 | -5.8 | -0.5 | . | . | .
50. COc1ccc(C(=O)NCC(=O)OCC(=O)N(C)c2ccccc2)cc1
    . | . | . | . | i | 0.92 | 90.3
51. COc1cc(C(=O)OC(C)CN2CCN(C)CC2)cc(OC)c1OC (stereo not drawn)
    . | . | 2.1 | -4.0 | i | 0.917 | 99.9
52. O=C(NC1CC1)C1CCN(C2CCN(C(=O)CC3=CCCCC3)CC2)CC1
    35.7 | 120.7 | -3.0 | . | i | 0.95 | 106.3
53. COc1cccc2c3c(c(C)nc12)CCN3c1ccccc1
    0.0 | 99.4 | -4.5 | . | i | 0.96 | 98.5
54. CCNc1nc2cccnc2s1
    . | . | . | . | i | 0.95 | 101.8
55. Brc1ccc(-c2nnc(-c3ccccc3)o2)o1
    . | . | 2.8 | -1.2 | i | 1.03 | 104.4
56. O=[N+]([O-])c1ccc(NCc2ccc3c(c2)OCO3)cc1
    41.2 | 72.3 | -5.8 | . | i | 1.05 | 106.2
57. O=C(CCC1CCCCC1)Nc1ccccc1-c1ccccc1
    16.1 | 123.5 | -0.8 | -0.8 | i | 0.86 | 108.6
58. O=C(c1ccc(Cl)c(S(=O)(=O)Nc2ccccc2C(=O)N2CCc3ccccc3C2)c1)N1CCc2ccccc2C1
    -7.4 | 59.4 | -16.5 | -0.4 | i | 0.6 | 88.5
59. O=C(OC1CCOC1=O)c1ccc2ncsc2c1 (stereo not drawn)
    46.1 | 98.2 | -6.6 | -1.7 | i | 0.93 | 101.1
60. Cc1ccc(C(=O)N2CCN=C2SCc2ccc([N+](=O)[O-])cc2)cc1C
    -45.5 | 53.6 | 4.9 | . | i | 0.95 | 103.0
61. COc1ccccc1S(=O)(=O)CC(O)COc1ccc(C#N)cc1 (stereo not drawn)
    -53.3 | 129.1 | -0.9 | . | i | 1.07 | 99.3
62. CCOC(=O)c1cc(-c2ccc(Cl)s2)[nH]n1
    . | . | . | . | i | 1.04 | 92.8

Three compounds out of the list, ordered by molar mass, lowest first:
The line under a structure holds: Insulin prom inh | Insulin prom inh cell count | PKD1 kinase inh | GALR2 ag | HSV augment | HSV augment primary fold | RGS16-Gao HTS
59. O=C(OC1CCOC1=O)c1ccc2ncsc2c1 (stereo not drawn)
    46.1 | 98.2 | -6.6 | -1.7 | i | 0.93 | 101.1
55. Brc1ccc(-c2nnc(-c3ccccc3)o2)o1
    . | . | 2.8 | -1.2 | i | 1.03 | 104.4
52. O=C(NC1CC1)C1CCN(C2CCN(C(=O)CC3=CCCCC3)CC2)CC1
    35.7 | 120.7 | -3.0 | . | i | 0.95 | 106.3

Bioassay records: PubChem BioAssay, several laboratories
